# Bioassay records from PubChem BioAssay.
# VDR inh: inhibitors of human vitamin D receptor; VDR-SRC2-3 peptide fluorescence polarization, 2 h; Potency, µM, without a hit: max response, negative = inhibition, actives largely listed as inhibitors; 0.93% of 400,000 active; active = well fitted inhibition curve with a large enough effect; inconclusive = small, poorly fitted or top-dose-only effect, or another doubt; inactive = no such curve, though single readings can be large or run the other way; also: series mostly up to about 120 µM
# Target sequence (P11473 whole entry, looked up): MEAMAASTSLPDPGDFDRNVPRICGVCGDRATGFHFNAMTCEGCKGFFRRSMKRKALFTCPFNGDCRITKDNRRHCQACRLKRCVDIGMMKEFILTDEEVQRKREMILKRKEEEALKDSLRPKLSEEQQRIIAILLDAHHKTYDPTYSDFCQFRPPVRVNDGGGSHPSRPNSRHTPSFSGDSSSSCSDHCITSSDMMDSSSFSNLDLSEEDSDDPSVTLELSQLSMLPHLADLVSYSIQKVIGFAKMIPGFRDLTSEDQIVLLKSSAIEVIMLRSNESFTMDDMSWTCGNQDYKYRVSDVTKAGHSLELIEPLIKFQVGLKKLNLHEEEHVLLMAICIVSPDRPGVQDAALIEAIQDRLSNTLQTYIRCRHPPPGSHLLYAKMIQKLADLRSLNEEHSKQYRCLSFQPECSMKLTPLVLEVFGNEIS
#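 Measured by FP: displacement of SRC2-3 coactivator peptide from VDR by library compounds, following a two-hour ambient incubation.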
# An asterisk follows results filed as active; ? = inconclusive; & = joins results of further samples. % is scaled to controls: 0 for no effect and ±100 for the full control effect; potency is read from the fitted curve at half-maximal effect.
VDR inh | smiles
-14% | COc1cc([C@@H]2CC=C(C(=O)O)CN2S(=O)(=O)c2ccc(C)cc2)cc(OC)c1OC
-3% | CC[C@]1(c2ccccc2)NC(=O)NC1=O
0% | N#CC1(C#N)[C@@H](C(=O)C23CC4CC(CC(C4)C2)C3)C12CCOCC2
-19% | CC/C(Cc1ccccc1)=N\NC(=O)c1cc(C)oc1C
-16% | COc1ccc(NC(=O)NC(C)C2CC3CCC2C3)cc1 (stereo unspecified)
-16% | CN(C)CCN1C(=O)C(=O)/C(=C(/O)c2ccc(F)cc2)C1c1ccccc1 (stereo unspecified)
5% | Cc1ccc(/C=N/NC(=O)Cn2nccc2C)o1
2% | COCCn1ccc2c(OCC(=O)Nc3ccccc3F)cccc2c1=O
6% | CC(C)COP(=O)(c1ccc(N(C)C)cc1)C(O)c1ccccn1 (stereo unspecified)
-5% | O=C(COC(=O)c1cc(-c2cccs2)nn1-c1ccccc1)Nc1ccc(Cl)c([N+](=O)[O-])c1
-1% | Cc1ccc(OC(C)C(=O)Nc2ccc(C)c(S(=O)(=O)Nc3ccc(C)cc3C)c2)cc1 (stereo unspecified)
-3% | N/C(=N\OC(=O)CCCCCN1C(=O)c2ccccc2C1=O)c1ccccn1
-18% | Cn1c(COc2ccc([N+](=O)[O-])cc2)nnc1SCC(=O)NCC1CCCO1 (stereo unspecified)
16µM* | O=S(=O)(/C(=C/c1ccc(C(F)(F)F)cc1)c1nc2ccccc2[nH]1)c1ccccc1
-8% | O=C(O)CC/C(=N/Nc1ncc(C(F)(F)F)cc1Cl)C(=O)O
-4% | CN1c2ccccc2Sc2cc(N)ccc21
? | O=C(O)c1cc([N+](=O)[O-])ccc1NCCCc1ccccc1
-3% | Cc1ccc(C)c2nc(SCC(=O)Nc3ccc4c(c3)OCO4)c(C#N)cc12
-1%&-1% | COc1cccc(CNC(=O)CCC(=O)N2Cc3cccc(OC)c3Oc3ncccc32)c1OC
16% | Cc1ccc2nc(COc3cccc(NC(=O)c4ccccc4Cl)c3)cc(=O)n2c1
14% | c1csc(CNc2ncnc3sccc23)c1
10% | Clc1cccc(Cl)c1C1=NOC(c2nnc(-c3ccccc3)o2)C1 (stereo unspecified)
-20%&11% | Cc1ccc(NC(=O)CN(C)S(=O)(=O)c2cccc3cccnc23)cc1F
14% | Cc1ccc2c(c1)N(CCC(=O)NCc1ccc(F)cc1)C(=O)CO2
-6% | C=CCN(CC=C)Cc1c(O)ccc2c1oc(=O)c1ccccc12
5% | O=C(O)c1cc(N=Nc2c(O)ccc3ccccc23)cc(C(=O)O)c1
-17% | Cc1cccc(NS(=O)(=O)c2ccc(C)c(C(=O)OCC(=O)Nc3cc(C)on3)c2)c1
7% | Cc1ccsc1CN1CCc2nc(Nc3ccccc3)ncc2C1
-19% | Nc1nc2n(n1)C(c1ccccc1)CC(c1ccc(F)cc1)N2 (stereo unspecified)
? | CC(Oc1cc2oc(=O)c3c(c2cc1Cl)CCCC3)C(=O)NCCN1CCOCC1 (stereo unspecified)
0% | COc1ccc(-c2nnc(SCC(=O)Nc3cc(C)on3)n2N)cc1OC
-12% | CC(C)(C)c1n[nH]c(=S)n(N)c1=O
-4% | S=C(NCCCN1CCOCC1)N1CCN(c2ccccc2)CC1
-11%&-1% | CC1CCN(CCCNC(=O)CN2C(=O)CSc3ccc(S(=O)(=O)N4CCOCC4)cc32)CC1
-5% | COc1ccc2c(CC(=O)N3CCN(S(=O)(=O)c4cccs4)CC3)coc2c1
18% | Cn1ncc2c(Nc3cccc(Cl)c3)nc(Nc3cccc(Cl)c3)nc21
-4% | Cc1cccc2cc(CN(C(=O)c3cccc([N+](=O)[O-])c3)C(C)C)c(=O)[nH]c12
-7% | Cc1cc(C)c(NC(=O)/C=C\C(=O)O)c(Cl)c1
6% | O=C1CC(/C=C/c2cccnc2)=Nc2ccccc2N1
-13% | N#CCOC(=O)/C=C/c1ccc2c(c1)OCO2
7% | COC(=O)c1c(C)[nH]c(C(=O)OC(C)C(=O)N(C)C2CCCCC2)c1C (stereo unspecified)
? | COc1ccc(C2/C=C\CN(C(=O)Nc3ccc(C(F)(F)F)cc3)CC(=O)N2Cc2ccc(F)cc2)cc1 (stereo unspecified)
-10% | COc1cc(NC(=O)c2cc(S(=O)(=O)N3CCCCC3)c[nH]2)cc(OC)c1
-4% | COc1ccc(NC(=S)N2CCC(NC(=O)c3cccc(C)c3)CC2)cc1
-11% | O=C(NCc1ccccn1)c1ccccc1OCc1ccc(F)cc1
-6% | COc1ccc(-c2nc(CN3CCCCC3c3nccn3C)c(C)o2)c(C)c1C (stereo unspecified)
-12% | Cn1ccnc1SCCNC(=O)CCc1nnc(CCCCc2ccccc2)o1
-25% | Cc1c(CNCCc2ccccc2Cl)c(C(=O)O)c(C)n1-c1ccccc1
-24% | O=C(NCCCn1ccnc1)c1ccc(S(=O)(=O)N2CCOCC2)cc1
12% | Cc1sc2ncnc(NCC(O)c3ccccc3)c2c1C (stereo unspecified)
-6% | CC(=O)CCc1ccc(OCCCOc2cccc3cccnc23)cc1
-14% | O=C(O)c1ccc(/C=N/NC(=O)c2cc(-c3cccs3)nc3ccccc23)cc1
-7% | O=C(NCCN1CCOCC1)c1ccc(/C=C2\Sc3ccccc3N(Cc3ccc(F)cc3)C2=O)cc1
-8% | COC(=O)/C=C1\S/C(=N/NC(=O)c2ccccc2)NC1=O
2% | COc1ccc(OC)c(S(=O)(=O)N/N=C\c2cn(CC(N)=O)c3ccccc23)c1
3% | Cc1ccc(N=C(N)N=C(N)N)cc1
? | CCOC(=O)c1c(-c2ccc(C)o2)csc1NC(=S)NC(=O)N(C)C
3% | CCNc1nc(CN2CCOCC2)nc2sc3c(c12)CCC3
-6% | CCOC(=O)Cn1c(=O)oc2cc(S(=O)(=O)NCc3cccs3)ccc21
-14% | Cn1c(=O)c(-c2ccc(Cl)cc2)nc2cnc(Oc3cccc(Cl)c3)nc21

# Carrying on:
VDR inh | smiles
-12% | CN(Cc1ccccc1)C(=O)COC(=O)COc1ccc(Cl)cc1
-10% | FC(F)(F)c1cccc(Nc2c3c(nc4ccc(Cl)cc24)CCC3)c1
0% | COc1ccc(/C(N)=N/OC(=O)c2ccco2)cc1OC
5% | CCCOc1ccc(N2C(=O)CC(NCc3ccncc3)C2=O)cc1 (stereo unspecified)
16% | CSc1ccccc1NC(=O)CN(C)C(=O)COc1cccc2cccnc12
-8% | CC(C)CCNC(=O)c1cn(CC(C)C)c(=O)c2c1c1ccccc1n2C
-26% | CCCCNC(=O)C1CCC(CNc2nc(=S)[nH]c3ccccc23)CC1 (stereo unspecified)
-3% | CCC(CC)c1nc2cc(OC)c(OC)cc2c(=O)o1
7% | Cc1ccc(CNC(=O)CSCc2ccccc2C)cc1
8% | N#CCCn1cc(C(=O)O)c(-c2cccs2)n1
8% | COc1ccc(-c2c[n+]3c(n2-c2ccccc2)SCC3)cc1
-2% | CCOC(=O)c1c(NC(=O)CSc2cn(CCNC(=O)c3ccc(OC)c(OC)c3)c3ccccc23)sc2c1CCCC2

# Some of the entries so far, field by field.
smiles: Cc1ccc(N=C(N)N=C(N)N)cc1
  VDR inh = 3%

smiles: COc1ccc(OC)c(S(=O)(=O)N/N=C\c2cn(CC(N)=O)c3ccccc23)c1
  VDR inh = 2%

smiles: COc1ccc(NC(=S)N2CCC(NC(=O)c3cccc(C)c3)CC2)cc1
  VDR inh = -4%

smiles: Nc1nc2n(n1)C(c1ccccc1)CC(c1ccc(F)cc1)N2 (stereo unspecified)
  VDR inh = -19%

# Next section
VDR inh | smiles
11% | COc1ccc(C(CNC(=O)c2ccccc2C)N2CCCC2)cc1 (stereo unspecified)
-11% | O=C1CC(c2ccc(Br)cc2)c2c(ccc3ccccc23)N1 (stereo unspecified)
-16% | Oc1c(Br)cc(/C=N/NC(=S)NCC2CCCO2)cc1Br (stereo unspecified)
-3% | O=C(Nc1cnccn1)c1ccc(Cl)cc1
-10% | CC(Sc1nnc(-c2ccncc2)n1C)C(=O)Nc1nccs1 (stereo unspecified)
-1% | O=C(Cc1cccs1)N(c1ccccc1)C1C=CS(=O)(=O)C1 (stereo unspecified)
-1% | CS(=O)(=O)N(CC(=O)NC1CC2CCC1C2)c1ccc(Oc2ccccc2)cc1 (stereo unspecified)
-2% | O=C1C(=O)N(CCO)C(c2ccccc2[N+](=O)[O-])/C1=C(\O)c1ccccc1 (stereo unspecified)
12% | CCOc1ccccc1-n1nnnc1SCC(=O)NCc1ccco1
-13% | CC1CN(Cc2nc3c(c(=O)n(C)c(=O)n3C)n2CCCO)CC(C)O1 (stereo unspecified)
10% | Cc1ccc(SCC(=O)Nc2ncc(C)s2)cc1
10% | CCCn1c(SCC(=O)Nc2ccc(S(=O)(=O)N(C)C)cc2)n[nH]c1=O
-9% | COc1cc(C)c(C(=O)Oc2cc(C)c(C(=O)O)c(O)c2C)c(O)c1C(=O)O
-8% | CCOC(=O)Cc1csc(N/N=C/c2cccc([N+](=O)[O-])c2)n1
2% | CC1=C(C(=O)OCc2ccccc2)C(c2cccc(F)c2)NC(=O)N1 (stereo unspecified)
-12% | N#Cc1ccc(C23CC4(C2)[C@H](CN(Cc2ccc(C(F)(F)F)cc2)[C@@H]4c2ccccc2)C3c2ccc(C(F)(F)F)cc2)cc1 (stereo partly specified)
8% | Cc1ccc(C)c(NS(=O)(=O)c2cc(C(=O)NCC3CCCO3)ccc2C)c1 (stereo unspecified)
-5% | NS(=O)(=O)c1ccc(NC(=O)COC(=O)CCNC(=O)NC23CC4CC(CC(C4)C2)C3)cc1
-1% | NC(=O)c1nsc(C(=O)N(c2ccccc2)C(C(=O)NC2CCCCC2)c2ccc(O)cc2)c1N (stereo unspecified)
-2% | O=C(c1cc(COc2ccc(F)cc2Cl)on1)N1CCc2ccccc2C1
-17% | Cc1cccc(C)c1NC(=O)C1(NC(=O)c2cnccn2)CCCCC1
-4% | C=C(C)CNC(=S)Nc1cccc(N)n1
1% | CCN(CC)C(=O)c1c(-c2ccccc2)oc2ccc(OC)cc12
2% | C/C(=N\NC(=O)c1cc(C)[nH]n1)c1ccc(-c2ccccc2)cc1

# Random excerpt: three compounds from above, in no set order.
VDR inh | smiles
-8% | CCOC(=O)Cc1csc(N/N=C/c2cccc([N+](=O)[O-])c2)n1
2% | C/C(=N\NC(=O)c1cc(C)[nH]n1)c1ccc(-c2ccccc2)cc1
-12% | N#Cc1ccc(C23CC4(C2)[C@H](CN(Cc2ccc(C(F)(F)F)cc2)[C@@H]4c2ccccc2)C3c2ccc(C(F)(F)F)cc2)cc1 (stereo partly specified)

# Next structures:
VDR inh | smiles
2% | Cc1ccc(Cn2c(CNS(=O)(=O)c3c(C)cc(C)cc3C)nc3cccnc32)cc1
0% | Cc1ccccc1-c1nc(CS(=O)(=O)CC(=O)NC2CCCCC2C)c(C)o1 (stereo unspecified)
-14% | CCOC(=O)c1[nH]c2cc3c(cc2c1NC(=O)CN1CCc2ccccc2C1)OCO3
5% | O=C(O)Cn1nc(-c2ccccc2)ccc1=O
-10% | O=S(=O)(c1ccc(SCCOc2cccc(Br)c2)nc1)N1CCCC1
-24% | COCCCn1c(SCC(=O)Nc2oc(C)c3c(C)n[nH]c(=O)c23)nc2sc3c(c2c1=O)CCC3
7% | O=C(Nc1ccc(N2CCCCC2)c(Cl)c1)c1ncn[nH]1
-18% | CCN(c1ccccc1)S(=O)(=O)c1ccc(OC)c(NC(=O)C2CC2)c1
2% | COc1cccc(SCC2(O)CCN(C(=O)c3ccc(Cl)cc3)CC2)c1
1% | CS(=O)(=O)c1ccc(SCC(=O)NC2CCS(=O)(=O)C2)c([N+](=O)[O-])c1 (stereo unspecified)
-9% | O=C(CSc1nnc(CNC(=O)c2cccc(C(F)(F)F)c2)o1)NCc1ccco1
-12% | CCN(CC)CCNC(=O)c1ccc(NS(=O)(=O)c2ccc3c(c2)OCCO3)cc1
2% | CC(C)N(Cc1nnc(-c2ccc(Cl)cc2)o1)C(=O)c1cc2ccccc2o1
6% | COc1ccc2c(c1)C(=O)[C@H](OC(=O)N[C@H]1CCCc3ccccc31)[C@@H](c1ccc(OC)c(Br)c1)O2
-12% | COc1cc(OC)cc(C(=O)N2CCN(C(=O)c3cccc(F)c3)CC2)c1
-14% | Cc1ccc(OCC(=O)N2CCN(S(=O)(=O)c3ccccc3)CC2)c([N+](=O)[O-])n1
-12% | NC(=O)c1cccc(NC(=O)CCCCC(=O)Nc2cccc(C(N)=O)c2)c1
-17% | Cc1ccn2c(C(=O)CSc3ccc(Cl)cc3Cl)c(C)nc2c1
8% | CCCCOC(=O)NCN1C(=O)C2C3C=CC(C3)C2C1=O (stereo unspecified)
9% | O=C(Nc1cc(Cl)cc(Cl)c1)N1CCCC1
-1% | Cc1cccc(C(=O)Oc2ccc(/C=N/NC(=O)c3ccncc3)cc2)c1
-7% | CCn1c(SCC(=O)Nc2ccc(N3CCOCC3)cc2)nnc1-c1ccco1
3% | O=C(NCCN1CCN(C(=O)c2cccc(Br)c2)CC1)C(=O)Nc1ccc(Br)cc1
-25% | O=C(CNC(=O)c1cccs1)Nc1cccc(S(=O)(=O)N2CCOCC2)c1
-5% | O=C(C1CC1)N(Cc1ccco1)c1nc(-c2ccccc2)cs1
6% | CS(=O)(=O)N(CC(=O)N1CCc2ccccc2C1)c1ccccc1F
-18% | CC(C)CSC1=NSC2=NC(=O)/C(=C\c3ccccc3)C(=N)N12
-2% | CC(=O)Nc1ccc(S(=O)(=O)N2CCN(C(=O)c3ncoc3-c3ccc(C)cc3)CC2)cc1

# Four of the entries above in order of their number in VDR inh, falling.
VDR inh | smiles
11% | COc1ccc(C(CNC(=O)c2ccccc2C)N2CCCC2)cc1 (stereo unspecified)
2% | COc1ccc(OC)c(S(=O)(=O)N/N=C\c2cn(CC(N)=O)c3ccccc23)c1
-7% | O=C(NCCN1CCOCC1)c1ccc(/C=C2\Sc3ccccc3N(Cc3ccc(F)cc3)C2=O)cc1
-8% | CC(C)CCNC(=O)c1cn(CC(C)C)c(=O)c2c1c1ccccc1n2C

# Some of the compounds tested, so the mix of outcomes need not match the whole.
